# Screening data deposited in PubChem by Broad Institute.
# Vaccinia inh: blocks a specific stage of Vaccinia orthopoxvirus infection | 89,000 tested, 0.01% active | AID 1053133 | Vaccinia-infected cells, mCherry/Venus stage reporter fluorescence; hits give low values; some inactives read as strong as hits | activity change (mCherry), % (test concentration not listed);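 active means mCherry past -33% and 40 or more points under the early reporter, replicates agreeing; inconclusive means past -33% without that gap or agreement; tested in A549 cells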;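 further: scaled between vehicle wells and reference inhibitor wells; 23 nL library stock went into each well; one replicate is shown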
# Vaccinia inh Venus: also measured in Vaccinia inh; calls as there; activity change (Venus), %; measured here: Venus reporter, other viral stage;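 negative = less Venus signal; first of two replicates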
# The depositor's hits bear a star; ? = inconclusive; / = no result given; & = joins results of further samples.
SMILES,Vaccinia inh,Vaccinia inh Venus
CS(=O)(=O)Nc1ccc2c(c1)[C@@H]1C[C@@H](CC(=O)NCc3cccnc3)O[C@H](CO)[C@@H]1O2,-4,-4
COc1ccc(C#Cc2ccc([C@@H]3[C@@H](CO)N4C(=O)CN(C(=O)c5ccccc5)C[C@H]34)cc2)cc1,-16,-8
COc1cccc(-c2ccc([C@H]3[C@@H](CO)N4C(=O)CN(C(=O)c5ccncc5)C[C@@H]34)cc2)c1,2,-7
CCCN1[C@@H]2c3ccc(-c4ccncc4)c(=O)n3C[C@@H]2[C@@H](CO)[C@@H]1C(=O)OC,6,14
C[C@H](CO)N1C[C@H](C)[C@@H](CN(C)C(=O)c2ccc(F)cc2)Oc2ncc(C3=CCCC3)cc2C1=O,8,3
CCNC(=O)C[C@@H]1C=C[C@H](NC(=O)C2CCC2)[C@@H](CO)O1,12,8
CN(C)CC#Cc1ccc([C@H]2[C@H]3CN(C(=O)c4cccnc4)CC(=O)N3[C@H]2CO)cc1,13,7
COc1ccc(NC(=O)N[C@H]2C=C[C@H](CC(=O)NCc3ccccn3)O[C@H]2CO)cc1,1,-6
CC=Cc1ccc2n(c1=O)C[C@H]1[C@H](CO)[C@@H](C(=O)NCc3ccccn3)[C@@H]2N1CC1CC1 (mixture of isomers),14,12
CCS(=O)(=O)N1CCCCN2[C@H](CO)[C@H](c3ccc(-c4cccc(C#N)c4)cc3)[C@H]2C1,22,-1
Cc1noc(C)c1NC(=O)Nc1cccc2c1O[C@H](CN(C)Cc1ccccc1)[C@@H](C)CN([C@@H](C)CO)C2=O,-4,5
COc1ccc(C#Cc2ccc3c(c2)[C@]2(C(=O)N3)[C@H](c3ccc(OCCO)cc3)N3[C@H](c4ccccc4)[C@H](c4ccccc4)OC(=O)[C@H]3[C@@H]2C(N)=O)cc1,?,/
O=C(Nc1ccc(Cl)cc1)N[C@H]1CC[C@@H](CCNS(=O)(=O)c2ccccc2F)O[C@@H]1CO,-12,-6
COc1ccc(-c2ccc([C@H]3[C@H](CO)N4CCCCN(C(=O)Cc5ccccc5)C[C@@H]34)cc2)cc1,-13,-16
COC(=O)C[C@H]1C[C@H]2c3cc(NC(=O)Nc4ccccc4F)ccc3O[C@H]2[C@@H](CO)O1,6,0
C[C@@H]1CN([C@@H](C)CO)C(=O)c2cccc(NS(=O)(=O)c3ccc(F)cc3)c2O[C@@H]1CN(C)C(=O)Nc1ccccc1,3,4
COc1ccc(S(=O)(=O)N(C)C[C@H]2Oc3ccc(NC(=O)Nc4ccccc4)cc3C(=O)N([C@@H](C)CO)C[C@@H]2C)cc1,7,3
CO[C@H]1CN(C)C(=O)c2cc(NS(=O)(=O)CC(F)(F)F)ccc2OC[C@H](C)N(C)C[C@@H]1C,15,19
COc1ccc(S(=O)(=O)N2CC[C@@H]3[C@H](CO)Nc4ccc(C#Cc5cccc(OC)c5)cc4[C@@H]32)cc1,11,11
CC(C)NC(=O)Nc1cccc2c1O[C@H](CN(C)S(=O)(=O)c1cn(C)cn1)[C@H](C)CN([C@@H](C)CO)C2=O,7,1
CO[C@@H]1CN(C)C(=O)c2cc(NS(=O)(=O)c3c(C)noc3C)ccc2OC[C@@H](C)NC[C@@H]1C,-1,-3
CCCC#Cc1cnc2c(c1)C(=O)N([C@@H](C)CO)C[C@H](C)[C@H](CN(C)C(=O)Nc1cc(F)ccc1F)O2,2,4
COc1ccc(NC(=O)N(C)C[C@@H]2Oc3ncc(-c4cccc(C(F)(F)F)c4)cc3C(=O)N([C@H](C)CO)C[C@@H]2C)cc1,?,/
CC=Cc1ccc2n(c1=O)C[C@H]1[C@H](CO)[C@@H](C(=O)NCCc3cn(C)cn3)N(C(=O)C3CC3)[C@@H]21 (mixture of isomers),11,10

# Grouped by structure: the entries above with a halogen.
SMILES,Vaccinia inh,Vaccinia inh Venus
C[C@H](CO)N1C[C@H](C)[C@@H](CN(C)C(=O)c2ccc(F)cc2)Oc2ncc(C3=CCCC3)cc2C1=O,8,3
O=C(Nc1ccc(Cl)cc1)N[C@H]1CC[C@@H](CCNS(=O)(=O)c2ccccc2F)O[C@@H]1CO,-12,-6
COC(=O)C[C@H]1C[C@H]2c3cc(NC(=O)Nc4ccccc4F)ccc3O[C@H]2[C@@H](CO)O1,6,0
C[C@@H]1CN([C@@H](C)CO)C(=O)c2cccc(NS(=O)(=O)c3ccc(F)cc3)c2O[C@@H]1CN(C)C(=O)Nc1ccccc1,3,4
CO[C@H]1CN(C)C(=O)c2cc(NS(=O)(=O)CC(F)(F)F)ccc2OC[C@H](C)N(C)C[C@@H]1C,15,19
CCCC#Cc1cnc2c(c1)C(=O)N([C@@H](C)CO)C[C@H](C)[C@H](CN(C)C(=O)Nc1cc(F)ccc1F)O2,2,4
COc1ccc(NC(=O)N(C)C[C@@H]2Oc3ncc(-c4cccc(C(F)(F)F)c4)cc3C(=O)N([C@H](C)CO)C[C@@H]2C)cc1,?,/

# Next structures follow:
SMILES,Vaccinia inh,Vaccinia inh Venus
O=C(C[C@H]1C[C@@H]2c3cc(NS(=O)(=O)c4ccc(F)cc4)ccc3O[C@@H]2[C@H](CO)O1)NCCc1ccccc1,-18,-14
O=C(C1=C[C@@H](C2CC2)C[C@@H](OCc2ccc(CO)cc2)O1)N1CCOCC1,24,15
CC(C)NC(=O)N(C)C[C@@H]1Oc2ccc(NC(=O)Nc3ccc(C(F)(F)F)cc3)cc2C(=O)N([C@H](C)CO)C[C@H]1C,11,3
C[C@H]1CN([C@@H](C)CO)C(=O)c2cc(NS(=O)(=O)c3ccc(Cl)cc3)ccc2O[C@@H]1CN(C)Cc1ccc(-c2ccccc2)cc1,-16,-12
COCC(=O)Nc1ccc2c(c1)OC[C@H](C)N(C(=O)c1ccccc1F)C[C@@H](C)[C@@H](OC)CN(C)C2=O,-8,-10
C[C@@H]1CN([C@@H](C)CO)C(=O)c2cc(NC(=O)Nc3ccc(F)cc3)ccc2O[C@H]1CN(C)S(=O)(=O)c1cn(C)cn1,5,10
COCC(=O)N1[C@H](CO)[C@@H](c2ccccc2)[C@H]1CNC(=O)c1ccccn1,7,0
COc1ccccc1NC(=O)N[C@H]1CC[C@@H](CCn2cc(C3(O)CCCC3)nn2)O[C@@H]1CO,-2,7
COc1ccc(C[C@@H]2CCn3cc(nn3)COC[C@@H](c3ccccc3)NC2=O)cc1,8,8
CN(C)C(=O)C[C@@H]1CC[C@@H]2[C@@H](COc3ccc(NC(=O)C4CCCC4)cc3C(=O)N2C)O1,-8,-11
C[C@@H]1CCCCO[C@H](CN(C)C(=O)c2ccccc2)[C@@H](C)CN([C@H](C)CO)C(=O)c2cc(NS(=O)(=O)c3ccccc3)ccc2O1,34,20
CO[C@@H]1CC[C@H]2CCOc3c(C#N)cccc3C(=O)N(C)C[C@H](C)C(=O)N(C)C[C@@H]1O2,6,3

# A different layout for four compounds above:
> C[C@@H]1CN([C@@H](C)CO)C(=O)c2cccc(NS(=O)(=O)c3ccc(F)cc3)c2O[C@@H]1CN(C)C(=O)Nc1ccccc1
  Vaccinia inh: 3 | Vaccinia inh Venus: 4

> C[C@H]1CN([C@@H](C)CO)C(=O)c2cc(NS(=O)(=O)c3ccc(Cl)cc3)ccc2O[C@@H]1CN(C)Cc1ccc(-c2ccccc2)cc1
  Vaccinia inh: -16 | Vaccinia inh Venus: -12

> COc1ccc(S(=O)(=O)N(C)C[C@H]2Oc3ccc(NC(=O)Nc4ccccc4)cc3C(=O)N([C@@H](C)CO)C[C@@H]2C)cc1
  Vaccinia inh: 7 | Vaccinia inh Venus: 3

> CN(C)CC#Cc1ccc([C@H]2[C@H]3CN(C(=O)c4cccnc4)CC(=O)N3[C@H]2CO)cc1
  Vaccinia inh: 13 | Vaccinia inh Venus: 7

# Later entries:
SMILES,Vaccinia inh,Vaccinia inh Venus
C[C@@H]1CN([C@@H](C)CO)C(=O)CCCn2cc(nn2)CO[C@@H]1CN(C)C(=O)CCCN(C)C,12,-1
O=C(c1ccccc1F)N1CC(=O)N2[C@H](CO)[C@@H](c3ccc(C#Cc4ccc(F)cc4)cc3)[C@H]2C1,?,/
O=C(NC1CCC1)[C@@H]1[C@@H](CO)[C@@H]2Cn3c(ccc(-c4ccc(F)cc4)c3=O)[C@H]1N2Cc1cocn1,19,0
O=C(c1cccc(F)c1)N1CCCCN2[C@H](CO)[C@@H](c3ccc(-c4ccc(F)cc4)cc3)[C@H]2C1,-24,-16
CCCC#Cc1ccc([C@H]2[C@@H](CO)N3C(=O)CN(C(=O)c4ccccc4)C[C@@H]23)cc1,-7,-13
CCN1CC(=O)N2[C@H](C1)[C@H](c1ccc(Br)cc1)[C@@H]2CO,13,12
COc1cccc(S(=O)(=O)N2CCCCN3[C@H](CO)[C@H](c4ccc(-c5ccccc5)cc4)[C@H]3C2)c1,?,/
CCCC#Cc1ccc([C@@H]2[C@H](CO)N3C(=O)CN(C(=O)c4cccnc4)C[C@@H]23)cc1,2,1
CCN1CC(=O)N2[C@@H](CO)[C@H](c3ccc(Br)cc3)[C@@H]2C1,17,8
Cc1noc(C)c1NC(=O)N[C@@H]1CC[C@H](CCNC(=O)C2CCC2)O[C@H]1CO,9,8
COc1ccc(S(=O)(=O)N(C)C[C@H]2OCCCC[C@@H](C)Oc3ccc(NS(=O)(=O)c4ccc(Cl)cc4)cc3C(=O)N([C@H](C)CO)C[C@@H]2C)cc1,-6,6
CO[C@H]1CC[C@@H]2CCOc3c(C#N)cccc3C(=O)N(C)C[C@H](OC)[C@H](C)C(=O)N(C)C[C@@H]1O2,11&12,1&7
CCC#CCN(Cc1ccccc1Br)[C@H](/C=C/c1ccccc1)[C@@H](O)Cc1ccccc1,3,-3
Cc1noc(C)c1S(=O)(=O)Nc1ccc2c(c1)C(=O)N([C@H](C)CO)C[C@H](C)[C@@H](CN(C)Cc1ccc(C(F)(F)F)cc1)O2,-1,-3
CCC(=O)N1[C@@H](C#N)[C@@H](c2ccccc2-c2ccccc2)[C@@H]1CO,8,11
COc1ccccc1-c1ccc([C@@H]2[C@@H](CO)N3CCCCN(C(=O)CN4CCOCC4)C[C@@H]23)cc1,16,-7
C[C@@H]1CCCCO[C@@H](CN(C)C(=O)CCCN(C)C)[C@H](C)CN([C@@H](C)CO)C(=O)c2cc(NC(=O)Nc3ccccc3)ccc2O1,5,6
CO[C@H](C(=O)N(C)C[C@@H]1OCc2ccccc2-c2c(n(C)c3ccccc23)C(=O)N([C@@H](C)CO)C[C@@H]1C)c1ccccc1,-28,-33
O=C(C1CCOCC1)N1C[C@@H]2[C@H](c3ccccc31)[C@@H](CO)N2C(=O)c1ccccc1,10,2
Cc1noc(C)c1S(=O)(=O)Nc1ccc2c(c1)C(=O)N([C@@H](C)CO)C[C@H](C)[C@@H](CN(C)C(=O)C1CCCCC1)OCCCC[C@@H](C)O2,-7,-11
C[C@@H]1CN([C@H](C)CO)C(=O)c2c(c3ccccc3n2C)-c2ccccc2CO[C@H]1CN(C)Cc1cccc(F)c1,?,/
COc1ccc(NC(=O)Nc2ccc3c(c2)C(=O)N([C@H](C)CO)C[C@@H](C)[C@@H](CN(C)C(=O)Nc2ccc(OC)cc2)OCCCC[C@@H](C)O3)cc1,-4,6
C[C@@H]1CN([C@H](C)CO)C(=O)Cc2cc(NC(=O)NC3CCCCC3)ccc2O[C@H]1CN(C)S(=O)(=O)c1cn(C)cn1,5,4
C[C@@H]1CN([C@@H](C)CO)C(=O)c2cc(-c3ccccc3)cnc2O[C@@H]1CN(C)C(=O)Cc1cccnc1,9,0
C[C@@H]1CCCCO[C@H](CN(C)Cc2ccncc2)[C@@H](C)CN([C@H](C)CO)C(=O)c2cc(NS(=O)(=O)c3cn(C)cn3)ccc2O1,15,4
CO[C@H](CN(C)Cc1ccc(-c2ccccn2)cc1)[C@@H](C)CN(C(=O)Nc1ccc(F)cc1)[C@H](C)CO,5,8
CCC(=O)NC[C@H]1[C@H](c2ccccc2)[C@@H](CO)N1C(=O)C1CCC1,10,5
C[C@H]1CN([C@@H](C)CO)C(=O)c2cc(-c3ccccc3F)cnc2O[C@@H]1CN(C)C(=O)C1CCOCC1,6,8
C[C@H](CO)N1C[C@H](C)[C@@H](CN(C)Cc2ccccc2)Oc2ncc(C#CC3(O)CCCC3)cc2C1=O,6,3
Cc1ccc(S(=O)(=O)Nc2ccc3c(c2)CC(=O)N([C@@H](C)CO)C[C@H](C)[C@H](CN(C)S(C)(=O)=O)O3)cc1,4,-9
Cc1noc(C)c1NC(=O)N(C)C[C@H]1Oc2ccc(NC(=O)Cc3ccccc3)cc2CC(=O)N([C@@H](C)CO)C[C@@H]1C,-5,-7
COCC(=O)N1CCCCN2[C@H](C1)[C@H](c1ccc(-c3ccccc3)cc1)[C@@H]2CO,46,8
O=C(NC1Cc2ccccc2C1)[C@@H]1[C@@H](CO)[C@@H]2Cn3c(cccc3=O)[C@@H]2N1C(=O)c1ccccn1,-2,-1
COc1ccc(CN2[C@@H]3CN(C(=O)Nc4ccc(F)cc4)c4ccccc4[C@@H]3[C@@H]2CO)cc1,-20,-8
O=C(Nc1ccccc1F)N1CCCCN2[C@@H](CO)[C@@H](c3ccc(-c4cccnc4)cc3)[C@@H]2C1,1,-7
CC=Cc1ccc2n(c1=O)C[C@H]1[C@H](CO)[C@@H](C(=O)N[C@H](C)c3ccccc3)N(C)[C@@H]21 (mixture of isomers),11,19
C[C@H](CO)N1C[C@H](C)[C@H](CN(C)Cc2ccc(Cl)c(Cl)c2)Oc2c(NS(C)(=O)=O)cccc2C1=O,2,-3
Cc1ccc(S(=O)(=O)N(C)C[C@H]2Oc3ccc(NC(=O)Cc4cn(C)c5ccccc45)cc3C(=O)N([C@H](C)CO)C[C@H]2C)cc1,11,16
C[C@@H]1CN([C@@H](C)CO)C(=O)c2cccc(NC(=O)c3ccc(-c4nccs4)cc3)c2O[C@@H]1CN(C)S(=O)(=O)c1ccc(F)cc1,-24,-8
COc1ccc(S(=O)(=O)N(C)C[C@@H]2OCCCC[C@H](C)Oc3ccc(NC(=O)Nc4cccc5ccccc45)cc3C(=O)N([C@@H](C)CO)C[C@H]2C)cc1,8,3
C[C@@H]1CCCCO[C@@H](CN(C)Cc2ccncc2)[C@H](C)CN([C@@H](C)CO)C(=O)c2cc(NC(=O)Nc3cccc4ccccc34)ccc2O1,-3,-2
CC(=O)N[C@@H]1CC[C@H](CC(=O)NCC2CCCCC2)O[C@@H]1CO,6,15

# This is a subset (hit frequency here may not be typical).
